Assay outcomes: PubChem BioAssay, several laboratories
ALR inh: blocks human ALR sulfhydryl oxidase activity; P55789; purified ALR, DTT oxidation, H2O2 HRP-luminol luminescence; inhibition, % (no concentration beside the values); 3.8% of 290,000 active; AID 485317;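 active = mean and each replicate at 75% or more; inconclusive = only one of the two met; inactive = neither met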;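 note: stock transfer was 7.5 nL into about 7.5 µL; 0% = neutral wells and 100% = wells with inactivated enzyme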
B2AR ag: agonists of human beta-2 adrenergic receptor inducing internalization; P07550; Am2.2-beta2AR cells, FAP receptor internalization, flow cytometry; reference of the scale not given here; response, % (test concentration not listed); 0.43% of 340,000 active;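 active = response above a set limit, near 3 SD of response in nonfluorescent compounds, cut at about 42% in these data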;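 note: stock transfer was 100 nL into about 11 µL; a reference agonist was the positive control; negative values mostly stem from fluorescent compounds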
LANA-H2A inh: blocks KSHV LANA binding to histone H2A/H2B. AID 2629. Q9QR71. inhibition, % (no concentration beside the values). 0.6% of 320,000 active. cell-free LANA-H2A/H2B peptide, fluorescence polarization; in the data active = inhibition mostly above about 10%, no sharp cut-off; inactive = mostly below about 6.7%;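 note: stock transfer was 7.5 nL into about 10 µL; 0% = median of vehicle wells and 100% = median of positive control wells; one replicate is shown; the record names a cut of 25% in any replicate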
Target sequence (Q9QR71 whole entry, looked up): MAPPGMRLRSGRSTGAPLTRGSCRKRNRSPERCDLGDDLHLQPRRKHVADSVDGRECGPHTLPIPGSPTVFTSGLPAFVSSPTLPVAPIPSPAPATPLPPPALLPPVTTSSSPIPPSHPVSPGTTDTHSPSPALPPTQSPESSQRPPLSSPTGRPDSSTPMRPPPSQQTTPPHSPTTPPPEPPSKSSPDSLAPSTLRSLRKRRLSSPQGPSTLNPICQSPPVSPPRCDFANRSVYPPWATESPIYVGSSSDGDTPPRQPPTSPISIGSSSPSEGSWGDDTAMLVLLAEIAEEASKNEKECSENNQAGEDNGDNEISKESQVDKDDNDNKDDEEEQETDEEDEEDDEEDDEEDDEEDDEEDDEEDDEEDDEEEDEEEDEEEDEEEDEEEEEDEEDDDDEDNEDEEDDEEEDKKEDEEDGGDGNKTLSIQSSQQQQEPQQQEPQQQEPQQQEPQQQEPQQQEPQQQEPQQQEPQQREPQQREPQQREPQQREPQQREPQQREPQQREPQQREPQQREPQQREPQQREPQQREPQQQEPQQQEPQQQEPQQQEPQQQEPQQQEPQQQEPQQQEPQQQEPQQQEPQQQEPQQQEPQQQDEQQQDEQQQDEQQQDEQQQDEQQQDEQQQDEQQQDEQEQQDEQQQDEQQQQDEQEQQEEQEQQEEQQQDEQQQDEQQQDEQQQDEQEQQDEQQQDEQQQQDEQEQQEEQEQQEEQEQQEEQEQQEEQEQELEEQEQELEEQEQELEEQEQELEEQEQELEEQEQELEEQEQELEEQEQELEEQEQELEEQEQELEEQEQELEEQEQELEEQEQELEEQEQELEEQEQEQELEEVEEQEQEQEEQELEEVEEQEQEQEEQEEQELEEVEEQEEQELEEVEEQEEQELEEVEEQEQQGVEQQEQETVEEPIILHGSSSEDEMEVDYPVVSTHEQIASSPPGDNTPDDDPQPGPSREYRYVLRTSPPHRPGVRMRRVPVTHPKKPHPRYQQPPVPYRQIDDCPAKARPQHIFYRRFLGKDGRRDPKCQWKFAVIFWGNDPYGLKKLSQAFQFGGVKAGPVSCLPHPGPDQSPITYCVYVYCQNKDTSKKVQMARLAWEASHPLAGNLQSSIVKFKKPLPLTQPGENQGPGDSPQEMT
Bfl-1 A1 inh: inhibitors of the anti-apoptotic protein A1, read as caspase activation | AID 2462 | caspase activation, % (test concentration not listed) | 0.066% of 330,000 active | MEF A1-2A-BIM cells, Caspase-Glo 3/7 luminescence, 3 h; percent of clofoctol response, vehicle zero;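 active = over half of replicate activation scores above 10%, or exactly half above 10 with the replicate mean above 10; inconclusive = replicate mean below 10 yet half the replicates above 10; inactive = over half of replicates below 10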;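 note: wells of about 30 µL received 50 nL stock; many hits fall short of the cut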
Calb FLC: C. albicans growth modulation with fluconazole. growth inhibition, % (concentration not given with the values). 0.57% of 300,000 active. C. albicans CaCi-2 (fluconazole-resistant clinical isolate) + fluconazole, Alamar Blue growth, 48 h;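 active = most replicates above 75%; inconclusive = exactly half above 75%; inactive = most below 75%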;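 note: all wells also contain fluconazole at 8 µg/ml as a sub-toxic cotreatment; 0% = median of DMSO wells and 100% = median of geldanamycin control wells; wells of about 8 µL received 7.5 nL stock; the first replicate is given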
T cruzi repl: blocks replication of Trypanosoma cruzi; T. cruzi beta-gal in NIH3T3, luminescence, 90 h; inhibition, % (no concentration beside the values); 1.4% of 300,000 active; AID 1885;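 active = mean inhibition across valid replicates above about 55%, limit read from the data; inconclusive = mean below that limit but half or more replicates reach it; inactive = mean below it, under half of replicates reach it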;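 note: signal also drops with host cell toxicity which is not excluded here; 0% = plate median of DMSO wells and 100% = zero luminescence signal; higher percent means less beta-gal luminescence so fewer parasites; stock transfer was 50 nL into about 50 µL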
rRNA inh HTS: inhibits bacterial ribosomal RNA function over humanized ribosomes | 1.6% of 350,000 active | GFP signal change (wild-type ribosome), % (test concentration not listed) | E. coli WT GFP vs humanized-ribosome RFP mutants, fluorescence, 24 h; hits give low values; DMSO median 0, no signal -100;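 active = significant combined selectivity score with lowered wild-type GFP, culture density cut under 30%, mutant RFP and density less affected; inactive = any of these conditions unmet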; note: one replicate is shown; some compounds called inactive have numbers as strong as hits
Beta apoptosis: blocks beta cell apoptosis. INS-1E cytokine-induced death, ATP luminescence, 48 h; percent of positive-control rescue, neutral wells zero. protection from apoptosis, % (concentration not given with the values). 0.8% of 300,000 active;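 active = all replicates at 75% or more, or half of them and the mean; inconclusive = half reach 75% but not the mean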;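 note: 0% = cytokine-treated negative control wells and 100% = positive control rescue; higher means more ATP so stronger rescue from cytokine killing; wells of about 40 µL received 100 nL stock; the first replicate is given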
rRNA inh HTS OD600: also measured in rRNA inh HTS; calls as there; OD600 change, %; measured here: OD600 growth;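 optical density of the mix in the first replicate; 0 = DMSO median and -100 = no signal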
rRNA inh HTS RFP: also measured in rRNA inh HTS; calls as there; RFP signal change, %; measured here: RFP humanized mutant strains;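 first replicate; 0 = DMSO median and -100 = no signal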
* = called active by the depositor; ? = inconclusive; / = not tested or not shown; & = joins results of further samples. Not all compounds are listed (hit frequency here may not be typical).

Order of values – ALR inh	B2AR ag	LANA-H2A inh	Bfl-1 A1 inh	Calb FLC	T cruzi repl	rRNA inh HTS	rRNA inh HTS OD600	rRNA inh HTS RFP	Beta apoptosis
1	Cc1cc(=O)oc2c(C)c(OCC(=O)NCc3ccccn3)ccc12
 : 0	5	0.7	0.4	-5	17	2	8	1.7	4
2	NS(=O)(=O)c1ccc(NC(=O)c2ccccc2C(=O)N2CCCCC2)cc1
 : 0	-5	4.5	0.5	-17	-6	/	/	/	/
3	Cc1ccc2[nH]c(=O)c(CN(Cc3ccccc3)Cc3nnnn3C3CCCC3)cc2c1
 : -7	9	-0.5	-0.5	13	48	/	/	/	4
4	CSc1nc2c(c(=O)[nH]c(=O)n2C)n1Cc1ccccc1Cl
 : -6	4	0.5	-0.9	33	0	12	11	-0.8	7
5	COC(=O)c1ccccc1NC(=O)Nc1cccs1
 : -10	-12	2.1	-0.3	5	-21	1	-3	4.8	-5
6	Cc1ccccc1C(=O)OCC(=O)N(C)c1ccccc1
 : 4	-9	-0.4	0.6	-6	4	-6	0	0.1	/
7	CCOc1cccc(C(=O)Nc2ccc(NC(=O)c3cc4ccccc4o3)c(OC)c2)c1
 : 0	13	-2.0	-0.6	1	-7	9	9	0.6	7
8	CCOc1ccccc1N(C)C(=O)CCS(=O)(=O)c1ccc2c(c1)NC(=O)CO2
 : 1	5	0.3	-0.4	4	10	9	12	1.7	-4
9	CC1CN(S(=O)(=O)c2cccc(C(=O)OCC(=O)c3cccs3)c2)CC(C)O1 (configuration not stated)
 : -21	1	0.1	-0.1	0	1	/	/	/	2
10	CC(C)C(=O)NNC(=O)C1CC1(c1ccccc1)c1ccccc1 (configuration not stated)
 : 1	-10	2.6	-0.3	4	-8	7	3	0.2	-5
11	O=C1OC(OC(=O)c2ccccc2Br)C(N2CCOCC2)=C1Cl (configuration not stated)
 : 57	1	2.7	-0.3	-7	0	/	/	/	-6
12	Cn1cccc1Cc1nnc(SCC(=O)Nc2ccc3c(c2)OCO3)n1CCc1ccccc1
 : 15	-1	-0.8	-0.4	5	-6	-8	-13	2.7	5
13	CN1CCN(CC(O)COc2ccccc2)CC1 (configuration not stated)
 : 0	-4	-0.5	-0.7	1	29	5	9	-0.8	-2
14	O=C(CCCSc1nc2ccccc2[nH]1)NCc1ccc(Cl)cc1
 : -10	-5	-11	-0.3	14	10	-44	-53	12	5
15	COC(=O)c1cccc(NC(=O)CSc2ncn[nH]2)c1
 : 26	0	1.9	0.1	/	/	/	/	/	-2
16	CCN(CC)/C(=N\S(=O)(=O)c1ccccc1C)c1ccccc1
 : 2	4	0.8	-0.5	26	-17	2	-7	0.9	/
17	CC(C)c1c(O)nc(SCCN(C)C)[nH]c1=O
 : -1	-104	0.4	1.2	4	1	/	/	/	-10
18	Cc1c(C(=O)OCc2nnc(-c3ccccc3)o2)oc2ccccc12
 : /	2	-3.9	-0.7	/	/	3	12	-0.7	0
19	C[C@H](CO)N1C[C@H](C)[C@@H](CN(C)CC2CCCCC2)Oc2c(NS(=O)(=O)c3ccccc3)cccc2C1=O
 : 34	-4	7.2	-0.2	/	/	2&-1	4&3	-1.6&0.3	-2
20	O=C(Cn1nnc(-c2ccccc2Cl)n1)Nc1cccc(S(=O)(=O)N2CCCC2)c1
 : -9	-11	1.4	0.5	/	/	-16	-30	3.5	-6
21	N#Cc1ccsc1NC(=O)COC(=O)c1ccc2ccccc2c1
 : -23	8	-6.5	-3.9	-2	-6	/	/	/	-15
22	O=[N+]([O-])/C(C(Cl)=C(Cl)Cl)=C(/NC1CC1)Sc1ccccc1
 : 24	-10	0.9	0.7	1	-8	17	14	0.6	-13
23	COc1ccccc1NC(=O)C/C(N)=N/O
 : 4	-1	5.8	-1.1	11	17	/	/	/	-4
24	CC(=O)c1ccc(Sc2nnc(C)s2)c([N+](=O)[O-])c1
 : 8	0	-1.5	1.6	32	0	13	13	-0.5	-22
25	COc1ccc(CN2C(=O)c3cccnc3C2=O)cc1S(=O)(=O)N(C)Cc1ccco1
 : -9	-1	1.6	0.8	-3	-15	-3	2	-3.0	-9
26	O=C1/C(=C/c2ccc(Cl)cc2)NC(=S)N1Cc1cccnc1
 : 0	0	-7.3	-1.5	20	19	8	6	-1.0	5
27	CN1CCN(C(=O)/C(=C/c2ccc(N(C)C)cc2)NC(=O)c2ccccc2)CC1
 : /	17	-0.1	-1.0	5	-1	4	4	-0.9	1
28	Cc1ccc(S(=O)(=O)N(C)C)cc1NC(=O)Nc1c(-c2ccccc2)noc1C
 : 1	-1	-11	-0.5	-8	-9	-10	-2	2.4	-7
29	COC(=O)Nc1ccc(S(=O)(=O)N(CCO)CCO)cc1
 : -26	-2	3.7	0.0	11	0	14	16	-1.3	1
30	CCn1c(SCc2cccc(C)c2)nnc1-c1ccc(C)cc1
 : -2	0	-2.6	-1.2	17	-1	/	/	/	-3

Entries from the list above that contain a nitro group on carbon, in the order listed:
Order of values – ALR inh	B2AR ag	LANA-H2A inh	Bfl-1 A1 inh	Calb FLC	T cruzi repl	rRNA inh HTS	rRNA inh HTS OD600	rRNA inh HTS RFP	Beta apoptosis
22	O=[N+]([O-])/C(C(Cl)=C(Cl)Cl)=C(/NC1CC1)Sc1ccccc1
 : 24	-10	0.9	0.7	1	-8	17	14	0.6	-13
24	CC(=O)c1ccc(Sc2nnc(C)s2)c([N+](=O)[O-])c1
 : 8	0	-1.5	1.6	32	0	13	13	-0.5	-22

In another format: entries from further up
[27] CN1CCN(C(=O)/C(=C/c2ccc(N(C)C)cc2)NC(=O)c2ccccc2)CC1
[28] Cc1ccc(S(=O)(=O)N(C)C)cc1NC(=O)Nc1c(-c2ccccc2)noc1C

Screen / compound no.	27	28
ALR inh	/	1
B2AR ag	17	-1
LANA-H2A inh	-0.1	-11
Bfl-1 A1 inh	-1.0	-0.5
Calb FLC	5	-8
T cruzi repl	-1	-9
rRNA inh HTS	4	-10
rRNA inh HTS OD600	4	-2
rRNA inh HTS RFP	-0.9	2.4
Beta apoptosis	1	-7

Continued:
Order of values – ALR inh	B2AR ag	LANA-H2A inh	Bfl-1 A1 inh	Calb FLC	T cruzi repl	rRNA inh HTS	rRNA inh HTS OD600	rRNA inh HTS RFP	Beta apoptosis
31	O=C(Nc1nc(-c2ccccc2)cs1)C1c2ccccc2Oc2ccccc21
 : 21	-16	46*	0.5	4	-7	/	/	/	5
32	O=C(/C=C/c1ccc(S(=O)(=O)N2CCOCC2)cc1)NCc1ccc(Cl)cc1
 : -3	2	-2.0	1.8	-12	-13	14	4	6.1	9
33	Oc1ccc(-c2nc3ccc4ccccc4c3c3c2CCC3)cc1O
 : 9	7	3.1	0.1	11	9	/	/	/	-3
34	CCOc1ccc(C(CC(=O)O)NC(=O)C(c2ccccc2)c2ccccc2)cc1OC (configuration not stated)
 : -2	1	/	-0.3	/	/	0	4	1.5	0
35	CC(=O)Nc1ccc(/C(C)=N/Nc2nc(Nc3cccc4ccccc34)nc(N3CCOCC3)n2)cc1
 : /	11	-2.4	0.9	-4	27	/	/	/	68
36	Cc1ccc(C(=O)Nc2nnc(-c3ccco3)o2)cc1
 : 8	3	1.2	-1.5	0	-16	-51	-78	-29	-1
37	O=C(CCCC(=O)N(CC(=O)NC1CCCCC1)Cc1ccccc1)Nc1ccccn1
 : 4	4	-8.3	-1.0	-11	-9	/	/	/	0
38	COC(=O)c1cccc(NCN2C(=O)c3ccccc3C2=O)c1
 : -19	-4	-1.9	0.2	-2	-11	/	/	/	-8
39	COC(=O)c1ccccc1NC(=O)Nc1nnc(N2CCC(C)CC2)s1
 : ?	-12	-1.1	-0.6	3	-3	-2	-4	-0.8	2
40	O=C(Nc1ccccc1F)C1CCCN(S(=O)(=O)c2ccc(-n3cnnn3)cc2)C1 (configuration not stated)
 : /	-4	-4.2	0.0	2	-4	11	37	1.0	-2
41	Fc1ccc(C(c2ccc(F)cc2)N2CCN(C/C=C/c3ccccc3)CC2)cc1
 : -13	16	-7.7	1.7	/	36	/	/	/	15
42	CCCCOc1ccc(-c2cc(C(F)(F)F)c(C#N)c(SCC(=O)O)n2)cc1
 : 16	-4	-3.9	0.5	?	-1	7	6	-3.3	8
43	COC(=O)c1cc(C(=O)OCC(=O)N(C)c2ccccc2)cc([N+](=O)[O-])c1
 : -8	-2	5.6	2.0	-10	-12	1	5	-0.7	-10
44	COCC(=O)NC1CC2CCCC(C1)N2Cc1ccccc1 (configuration not stated)
 : /	3	-1.0	-0.7	?	-2	/	/	/	2
45	CCN(CC)c1ccc(NC(=O)C2CCCN(S(=O)(=O)c3cnc[nH]3)C2)c(C)c1 (configuration not stated)
 : 101*	2	1.8	0.3	2	-5	4	-6	2.3	-3
46	O=C(Cc1c(Cl)cccc1Cl)OCc1ccccn1
 : /	-14	12	-0.2	0	9	5	-3	-2.9	-3
47	CCN1CCN(C2=C(NS(=O)(=O)c3ccccc3)C(=O)c3ccccc3C2=O)CC1
 : -12	3	0.5	-1.2	39	1	-6	-6	3.8	82*
48	CCOC(=O)CC1CCCCN1Cc1nc(-c2ccc(F)c(OC)c2)oc1C (configuration not stated)
 : -4	3	12	0.2	-14	-9	/	/	/	1
49	C=CCc1cc(OC)ccc1OCCN(C)Cc1ccccc1
 : -2	0	-6.8	0.5	-6	45	-30*	-9.1*	-0.2*	-3
50	CCc1cc2c(NCCO)ncnc2s1
 : -3	3	1.3	2.5	5	-7	/	/	/	-8
51	CC(=O)SCC(=O)N=c1sc2cc(F)ccc2n1C
 : 99*	-11	-2.9	-0.7	0	-3	/	/	/	-5
52	O=C(O)Cn1cnc2c(oc3ccccc32)c1=O
 : -7	-5	3.8	-0.6	-11	-1	9	0	5.4	0
53	CC1(NC(=O)CN2CCN(c3cnn(-c4ccccc4)c(=O)c3Cl)CC2)CCS(=O)(=O)C1 (configuration not stated)
 : /	-3	-4.3	1.4	/	/	9	11	-1.6	-2

Ordered by value in B2AR ag (low to high): some entries from above.
nr | compound | ALR inh | B2AR ag | LANA-H2A inh | rRNA inh HTS | rRNA inh HTS OD600 | rRNA inh HTS RFP
38 | COC(=O)c1cccc(NCN2C(=O)c3ccccc3C2=O)c1 | -19 | -4 | -1.9 | / | / | /
43 | COC(=O)c1cc(C(=O)OCC(=O)N(C)c2ccccc2)cc([N+](=O)[O-])c1 | -8 | -2 | 5.6 | 1 | 5 | -0.7
41 | Fc1ccc(C(c2ccc(F)cc2)N2CCN(C/C=C/c3ccccc3)CC2)cc1 | -13 | 16 | -7.7 | / | / | /
